HPGD inh: HPGD (human) dehydrogenase inhibition | P15428 | purified HPGD, NADH fluorescence kinetic, PGE2 substrate | Potency, µM, for the others: at the highest dose activity change, negative = inhibition, actives largely listed as inhibitors | 150,000 tested, 4.3% active | AID 894; active = well fitted inhibition curve with a large enough effect (not every such curve was filed as active); inconclusive = small, poorly fitted or top-dose-only effect, or another doubt; inactive = no such curve, though single readings can be large or run the other way;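 note: top concentration of the series not given in the record; plate controls included wells without enzyme; inactives centre near -10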
Target sequence (P15428 whole entry, looked up): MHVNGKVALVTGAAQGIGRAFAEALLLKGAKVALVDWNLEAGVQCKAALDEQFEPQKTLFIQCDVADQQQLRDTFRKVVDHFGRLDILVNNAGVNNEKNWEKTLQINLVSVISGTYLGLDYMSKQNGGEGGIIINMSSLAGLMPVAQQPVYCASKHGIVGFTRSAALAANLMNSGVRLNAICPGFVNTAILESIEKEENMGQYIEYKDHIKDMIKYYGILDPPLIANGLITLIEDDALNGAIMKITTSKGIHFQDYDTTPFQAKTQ
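20 nM HPGD preincubated 15 min at room temperature with compound in 50 mM Tris-HCl pH 8, 0.01% Tween 20. Started with 1 mM NAD+ and 30 uM prostaglandin E2; NADH fluorescence (360/450 nm) read 5 times over 30-s intervals, last minus first.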
Numbers without * were called inactive; ? = inconclusive; & = joins results of further samples. % is set by controls: 0 for no effect and ±100 for the full control effect; potency is the fitted concentration of half-maximal effect. These rows are one share of the data, so the mix of outcomes need not match the whole.

SMILES | HPGD inh
CCCn1cnc2c(SCc3ccc(Cl)cc3)nc(N)nc21 | -7.8%
N#Cc1sc2nc3c(c(-c4ccco4)c2c1N)CCCC3 | ?
Cc1ccccc1C(=O)NCCCc1ccccc1 | 14.1µM*
O=C(Cc1c[nH]c2ccccc12)Nc1nc2ccccc2[nH]1 | -4.0%
Cc1cccc(/C=C\c2nc3ccccc3c(=O)[nH]2)c1 | ?
CCCn1c(NCc2cc(C)ccc2O)nc2ccccc21 | -15.2%
CC(C)NC(=O)c1ccc(-n2nc(C(F)(F)F)c3c2CCCC3)cc1 | -6.6%
CC(C)(C)c1cn(-c2ccc(F)cc2)c(=S)[nH]1 | ?
COc1ccc(C(=O)N(CC2CCCO2)C(C(=O)NCCC(C)C)c2ccc(C)cc2)cc1OC (stereo not drawn) | -2.5%
CCN(CC)CCCn1c(C)cc2c(c1=O)C(c1cc(OC)c(OC)cc1OC)C(C#N)=C(N)O2 (stereo not drawn) | -3.7%
CCc1c(C(=O)NN2C(=O)C3CCCCC3C2=O)csc1C (stereo not drawn) | -10.3%
CCc1nc2sc3c(c2c(=O)n1N)CCC3 | -14.2%
COc1cc(NC(=S)N2CCN(C(=O)c3ccco3)CC2)c(OC)cc1Cl | 31.6µM*
CCOC(=O)COn1c(=O)c(-c2cccs2)[n+]([O-])c2ccccc21 | 3.6%
CC(C)(C)N(NC(=O)OCc1ccccc1)C(=O)c1ccccc1 | 0.1%
CCOC(=O)C1(Cc2ccccc2)NC(c2ccccc2F)C2C(=O)N(CC)C(=O)C21 (stereo not drawn) | -6.2%
O=C(c1cccc(F)c1)N1CCN(c2ccc([N+](=O)[O-])c(N3CCCCC3)c2)CC1 | -6.0%
COC(=O)Cc1cnc(NC(=O)C2C3CCC(C3)C2C(=O)O)s1 (stereo not drawn) | -20.4%
Cc1[nH]n(-c2ccc(F)cc2)c(=O)c1C=Nc1ccc(S(=O)(=O)N(C)C)cc1 | -8.9%
COc1ccc(-n2c(=O)cc(N3CCN(c4ccccc4)CC3)[nH]c2=O)cc1 | -2.3%
CC1(C)C(=O)OC(c2cccn2-c2cccc([N+](=O)[O-])c2)C2(CCCCC2)C1=O (stereo not drawn) | -22.9%
COC(=O)[C@H](COC(C)(C)C)NC(=O)O[C@@H]1C(=O)c2cc(Br)ccc2O[C@H]1c1ccc2c(c1)OCO2 | -6.2%
CCOC(=O)C1C(C(=O)OC)=C(c2ccc(F)cc2)c2ccccc2N1S(=O)(=O)C(F)(F)F (stereo not drawn) | -14.1%
COc1ccc(N2CCN(C(=O)CCNS(=O)(=O)c3ccc(Br)s3)CC2)cc1 | -1.0%
COc1ccc2[nH]c3ccccc3c2c1 | ?
O=C(Oc1cc(Cl)ccc1Cl)c1ccc(N2CCOCC2)c([N+](=O)[O-])c1 | -23.8%
O=C(O)CCc1ccc(-c2ccccc2)n1NC(=O)c1sc2ccccc2c1Cl | -9.0%
O=C(CSCc1c(F)cccc1Cl)NCc1cccnc1 | -11.3%
Cc1cccc(C)c1OCC(O)CNC(C)(C)C (stereo not drawn) | 0.5%
COc1ccc(C)cc1N(CC(N)=O)S(=O)(=O)c1ccc(C)cc1 | ?
O=C(C1CCCN1C(=O)c1cccs1)N1CCc2ccccc21 (stereo not drawn) | -17.6%
Cc1cc(C)c(C)c(C(=O)CSc2nnc(-c3ccc4[nH]c(C)c(C)c4c3)o2)c1C | ?
O=C(Cn1nc(C(F)(F)F)c2c1CCCCC2)N1CCOCC1 | -4.1%
COc1ccc(-c2nn(CCC(=O)O)cc2/C=C2\SC(N)=NC2=O)cc1OC | 3.16µM*
Cn1c(CSCc2ccc(Cl)cc2)nnc1SCC(=O)Nc1nc2ccccc2s1 | -2.9%
O=C(CCNc1ccc(Cl)cc1)c1cccs1 | -11.4%
[O-]/[N+](=C\c1ccc(OC(F)F)cc1)c1ccccc1 | -23.8%
CC1(C)CC(=O)C2=C(C1)NC(=O)CC2c1cc(F)ccc1F (stereo not drawn) | -0.5%
CCOC(=O)CCN(Cc1cccs1)S(=O)(=O)c1ccc(F)cc1 | -8.6%
CCc1nnc(NC(=O)c2oc3cc(C)c(C)cc3c2C)s1 | -26.0%
O=C1c2ccccc2C(=O)N1CCN1CCc2ccccc21 | -14.9%
COC(=O)c1ccc(Sc2ccccn2)c([N+](=O)[O-])c1 | -12.6%
CC(C)CN1C(=O)C(NC(=O)C2CC2)(C(F)(F)F)C2=C1CC(C)(C)CC2=O (stereo not drawn) | -7.7%
CCOC(C)=O | -6.9%
CSc1nc(Oc2ccc(Cl)cc2)c2sccc2n1 | -11.2%
O=c1c(-c2ccccc2)nc2cnc(N3CCOCC3)nc2n1-c1ccccc1 | ?
O=C(CSc1nc2ccccc2c(=O)n1-c1ccccc1F)Nc1ccc2c(c1)CCC2 | -7.2%
CC(=O)OC[C@H]1O[C@H](C/C=N/OC[C@@H](O)[C@H]2O[C@@H]3OC(C)(C)O[C@@H]3[C@H]2O)C=C[C@@H]1OC(C)=O | -13.8%
Cc1ccc(-c2ccc(SCC(=O)Nc3ccc4c(c3)OCCO4)nn2)cc1 | -7.4%
CCC1Sc2ccccc2N(CC(=O)NC2CCCC2)C1=O (stereo not drawn) | 1.6%
O=S(=O)(c1cc(-c2nc3ccccc3s2)ccc1Cl)N1CCOCC1 | ?
O=S(Cc1ccc(Cl)cc1)CC(O)COc1ccc(Cl)cc1 (stereo not drawn) | 3.4%
COc1ccccc1N1CCN(Cc2ccc(Br)o2)CC1 | -8.8%
CC(=O)NN1C(=O)c2ccc(Oc3ccc([N+](=O)[O-])cc3)cc2C1=O | -11.2%
O=C(O)C1CC=CCC1C(=O)Nc1ccc(N2CCN(Cc3ccccc3)CC2)cc1 (stereo not drawn) | -8.3%
COc1ccc(-c2oc3ccccc3c(=O)c2O)cc1 | -15.4%
CCOC(=O)Cn1c(=O)n(Cc2ccco2)c(=O)c2ccc(C(=O)NC3CCCC3)cc21 | -3.6%
COc1ccc(C2C(C(C)=O)=C(C)N=c3s/c(=C/c4ccc5c(c4)OCO5)c(=O)n32)cc1 (stereo not drawn) | -28.2%
Cn1ccnc1Sc1nc2ccccc2nc1NS(=O)(=O)c1ccccc1 | 22.4µM*
Cc1cccc(N2C(=O)CC(N3CCN(C(=O)c4ccccc4)CC3)C2=O)c1 (stereo not drawn) | -11.2%
New compounds follow:
SMILES | HPGD inh
COc1ccc(-c2nc(Cc3ccc(Cl)cc3)no2)cc1OC | ?
CCOC(=O)c1oc2ccccc2c1CSc1nnnn1-c1ccc(C)cc1 | -10.9%
O=[N+]([O-])c1ccc(O)c2ncccc12 | -19.2%
C=CCn1cc(C(=O)N2CCN(C)CC2)c(=O)c2cc(S(=O)(=O)N3CCCC3)ccc21 | -10.4%
COC(=O)c1ccc(N2OC3(C)C=CC2CC3)cc1 (stereo not drawn) | -4.9%
O=C(CSc1nnc(-c2ccccc2O)o1)Oc1ccc(Br)cc1 | ?
O=C(C1CC1)N1CCC(c2nc(-c3ccc(S(=O)(=O)N4CCCC4)cc3)no2)CC1 | -6.4%
CCc1ccc(S(=O)(=O)Nc2ccc(O)c(C(=O)O)c2)cc1 | -9.4%
CCCCC(CC)COCC1CO1 (stereo not drawn) | -6.9%
CCC(CC)NC(=O)c1ccc2nc[nH]c2c1 | -6.9%
O=C1c2ccccc2C(=O)N1CN(C(=O)COc1ccccc1)c1ccccc1 | 3.6%
COc1ccc(OC)c(NC(=O)c2cn(C)c(=O)c3cc(OC)c(OC)cc23)c1 | -21.4%
CC1(C(=O)N(c2ccccc2)C(C(=O)NC2CCCC2)c2ccccn2)CC(=O)N=C2C=CC=CN21 (stereo not drawn) | ?
O=C(CSc1ccc(Cl)cc1)N1CCN(c2ccc([N+](=O)[O-])cc2Cl)CC1 | -6.2%
Cc1ccc(NC(=S)N/N=C/c2ccc([N+](=O)[O-])s2)cc1 | ?
Cc1ccc(C(=O)/C=C/c2c(C)nn(-c3ccccc3)c2Cl)cc1 | -20.6%
C=CCOC(=O)CCP(=O)(CCC(=O)OCC=C)c1ccccc1 | 3.9%
CCCCn1c2c(c3ccccc31)CCc1nonc1-2 | ?
O=C(Nc1cccc(C(=O)N2CCOCC2)c1)NC1CCCCC1 | -1.2%
CC(C)c1cc(C(=O)N/N=C/c2cccnc2)cs1 | -11.6%
CNC(=O)NCCN1CCCC1=O | -7.8%
COc1cc(C)nc(OCCNC(=O)COc2ccc(Cl)cc2C)n1 | -12.8%
C=C(C)CSc1nnc(-c2cc(OC)c(OC)c(OC)c2)n1N | -3.6%
O=C(COc1ccccc1)Nc1ccc(S(=O)(=O)N2CCCCCC2)cc1 | -15.5%
O=C(c1ccccc1)N1N=C(c2ccccc2)CC1c1ccc2nccnc2c1 (stereo not drawn) | -9.4%
CCOC(=O)CNC(=O)CSc1nnc(-c2cccc(C)c2)n1-c1ccc(OC)cc1 | -23.7%
CCCCC(=O)NC(NC(=O)CCCC)c1ccc(OCC(C)C)c(OC)c1 | 1.6%
O=S(Cc1ccc(Br)cc1)Cc1nnc(SCc2c(Cl)cccc2Cl)n1-c1ccccc1 (stereo not drawn) | -14.8%
CN=C1SC(CC(=O)Nc2sc(C)c(C)c2C(=O)OC)C(=O)N1C (stereo not drawn) | -17.2%
COc1ccc(C)cc1S(=O)(=O)N(C)CC(=O)NC1CCCC1 | -5.8%
CCCc1ccc(OC(=O)c2cccs2)cc1 | -20.7%
CCN(CCO)Cc1csc2ccc(C(C)(C)C)cc12 | -4.8%
COc1cc(N)ccc1C(=O)O | 1.7%
C=CCOc1ccc2nc(NC(=O)OC)[nH]c2c1 | -5.3%
O=C(O)Cn1cc2c(n1)CCCCC2 | -0.4%
O=C(COC(=O)c1ccc(Br)o1)NCc1cccs1 | -14.6%
C[N+]1(C)C2CCC1CC(OC(=O)C(O)c1ccccc1)C2 (stereo not drawn) | -19.4%
COc1cc(C(=O)N2CCCN(c3nc4cc(C)ccc4cc3C#N)CC2)cc(OC)c1OC | ?
Cc1cc(C)cc(NC(=O)CN2CCCN(S(=O)(=O)c3ccc(Br)s3)CC2)c1 | -11.6%
COc1cc([C@H]2[C@@H]3CCCC[C@]3(O)CCN2CC(=O)Nc2ccc(C)cc2)ccc1O | 4.9%
Cc1cc(C)n(-c2ccc(C(=O)Nc3cccc(S(=O)(=O)N(C)C)c3)cc2)n1 | -27.8%
CCOC(=O)N1CCN(C(=O)COc2cccc3c2CCN(Cc2cccc(C)c2)C3=O)CC1 | -9.4%
COc1cc(C(=O)NCc2cccc3ccccc23)cc(Cl)c1OC | 1.4%
COc1ccc(S(=O)(=O)n2ccnc2)c2cccnc12 | ?
C=CCn1c(C)cc(C(=O)COC(=O)[C@@H](NC(=O)c2ccccc2Cl)C(C)C)c1C | -9.2%
CCCNC(=O)c1cc(-c2ccco2)on1 | ?
O=c1oc2ccccc2c2c1ncn2C1CCCCC1 | -18.3%
COC(=O)CCC(=O)Nc1ccc(NC(=O)CCC(=O)OC)cc1 | -15.0%
N#CCSc1nnc(N)s1 | -9.4%
O=C(c1cnn2ccccc12)N1CCCc2ccccc21 | -19.9%
COC(=O)c1ccc(NC(=S)N2CCN(Cc3ccccc3)CC2)cc1 | -14.8%
Cc1ccc(Nc2n[nH]c(C)c2[N+](=O)[O-])c(C)c1 | -8.2%
COc1cccc(-c2noc(-c3cccnc3)n2)c1 | -15.4%
CC(CC(C)C(=O)Nc1ccccc1C(C)(C)C)C(=O)O (stereo not drawn) | -4.0%
O=C(NC1CC1)c1sc2cc([N+](=O)[O-])ccc2c1Cl | 25.1µM*
CCOC(=O)c1cc(CC)sc1NC(=O)c1ccc(N2C(=O)CCC2=O)cc1 | ?
Cc1c(C(=O)Nc2ccccc2C(=O)N2CCOCC2)cccc1[N+](=O)[O-] | -12.0%
CCCc1oc(C(=O)O)cc1CN1CCCC1 | -6.6%
COC(=O)N1C(/C=C/c2ccc3c(c2)OCO3)=Cc2ccccc2C1CC(C)=O (stereo not drawn) | ?
CS(=O)(=O)N1N=C(c2ccc(Br)cc2)CC1c1ccc2c(c1)OCO2 (stereo not drawn) | -0.5%
Additional compounds follow.
SMILES | HPGD inh
CC1=C(C(=O)Nc2ccc(C)cc2C)C(c2cccc([N+](=O)[O-])c2)n2nc(C(=O)OC(C)C)nc2N1 (stereo not drawn) | ?
Cc1ccccc1OCC(=O)NNC(=O)Nc1ccc(Cl)cc1 | -13.6%
NCCN1CCN(CCN)CC1 | -6.1%
CCCCOCCO | 0.1%&-4.5%

Filtered by structure, the entries above with fluorine
SMILES | HPGD inh
CC(C)NC(=O)c1ccc(-n2nc(C(F)(F)F)c3c2CCCC3)cc1 | -6.6%
CC(C)(C)c1cn(-c2ccc(F)cc2)c(=S)[nH]1 | ?
CCOC(=O)C1(Cc2ccccc2)NC(c2ccccc2F)C2C(=O)N(CC)C(=O)C21 (stereo not drawn) | -6.2%
O=C(c1cccc(F)c1)N1CCN(c2ccc([N+](=O)[O-])c(N3CCCCC3)c2)CC1 | -6.0%
Cc1[nH]n(-c2ccc(F)cc2)c(=O)c1C=Nc1ccc(S(=O)(=O)N(C)C)cc1 | -8.9%
CCOC(=O)C1C(C(=O)OC)=C(c2ccc(F)cc2)c2ccccc2N1S(=O)(=O)C(F)(F)F (stereo not drawn) | -14.1%
O=C(CSCc1c(F)cccc1Cl)NCc1cccnc1 | -11.3%
O=C(Cn1nc(C(F)(F)F)c2c1CCCCC2)N1CCOCC1 | -4.1%
[O-]/[N+](=C\c1ccc(OC(F)F)cc1)c1ccccc1 | -23.8%
CC1(C)CC(=O)C2=C(C1)NC(=O)CC2c1cc(F)ccc1F (stereo not drawn) | -0.5%
CCOC(=O)CCN(Cc1cccs1)S(=O)(=O)c1ccc(F)cc1 | -8.6%
CC(C)CN1C(=O)C(NC(=O)C2CC2)(C(F)(F)F)C2=C1CC(C)(C)CC2=O (stereo not drawn) | -7.7%
O=C(CSc1nc2ccccc2c(=O)n1-c1ccccc1F)Nc1ccc2c(c1)CCC2 | -7.2%
